Compound activity: PubChem BioAssay, National Center for Advancing Translational Sciences (NCATS)
miR-21 reporter – miR-21 reporter, rising signal; AID 2288; Potency, µM (series often up to 38.3 µM), for inactives: at the highest dose reporter change, positive = more light; 340,000 tested, under 10 active; HeLa miR-21 FLuc reporter, luciferase, 48 h; active = well fitted rising curve with a large enough effect; inconclusive = small, poorly fitted or top-dose-only effect; inactive = no such curve, though single readings can be large or run the other way;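 note: % of control where 0% means no effect; miR-21 action dims this reporter so a rising signal means less miR-21 action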
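HeLa cells endogenously expressing miR-21, stably carrying CMV-driven firefly luciferase with a downstream miR-21 binding site, 2000 cells/well. Titrations up to approximately 40 uM, 48 hours; luciferase luminescence read.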
Numbers without * were called inactive; ? = inconclusive.

SMILES	miR-21 reporter
CCS(=O)(=O)N1CCc2cc(C(=O)NCc3ccccc3OC)ccc21	7%
COc1ccccc1-c1cc(C(F)(F)F)nc(S(=O)(=O)CCCC(=O)Nc2ccc(F)cc2F)n1	0%
Cc1ccc(N2CCN(C(=O)c3ccc(Nc4nc5ccccc5n5nnnc45)cc3)CC2)c(C)c1	1%
O=C(CNC(=O)c1ccccc1)OCc1cc(=O)n2nc(C3CC3)sc2n1	-2%
Cc1ccccc1-c1noc(-c2ccc(NCc3cccnc3)c([N+](=O)[O-])c2)n1	-9%
COc1ccc(CNC(=O)C2=C(C)C(=O)OC23CCN(C(C)=O)CC3)cc1	-7%
O=C(Cc1ccccc1)Nc1sc2c(c1C(=O)Nc1ccccc1Cl)CCC2	-3%
CCOc1ccc(C(=O)c2cn(Cc3ccccc3OC)c3cc4c(cc3c2=O)OCCO4)cc1	-7%
O=C(CN1C(=O)COc2ccc(S(=O)(=O)N3CCCCCC3)cc21)N1CCN(c2ccc(Cl)cc2)CC1	-3%
CCn1c(C(=O)N2CCC(C(=O)NCCc3ccc(C)cc3)CC2)cc2sccc21	18%
CCn1c(=O)c(=O)n(CC)c2cc(N3CCCCC3)c(NC(=O)c3ccc(OC)c(OC)c3)cc21	-3%
Cc1ccc(N(CC(=O)Nc2cccc(Cl)c2C)S(=O)(=O)c2c(C)noc2C)cc1	3%
COc1ccc(NC(=O)CCCS(=O)(=O)c2nc(-c3ccc(OC)c(OC)c3)cc(C(F)(F)F)n2)cc1OC	?
COc1ccccc1OCC(=O)N(Cc1ccc(Cl)cc1)CC1CCCO1 (centres undefined)	-6%
CCOc1ccccc1NS(=O)(=O)c1cnc(N)nc1	-1%
O=C(NCCc1ccccc1)c1ccc(CSc2nc3ccncc3n2Cc2ccc(F)cc2)cc1	-2%
COc1ccc(C(=O)Oc2c(Sc3ccccc3)c(C)nn2-c2ccccc2)cc1OC	12%
CCN(C(=O)Cn1ncc2c(=O)oc3ccc(C)cc3c21)c1cc(OC)ccc1OC	-1%
Cc1cc(C)n(CCc2nc3c4ccccc4nc(N4CCN(c5ccccc5F)CC4)n3n2)n1	0%
CCOC(=O)c1[nH]c2ccccc2c1NC(=O)c1cc(Cl)ccc1Cl	-35%
COc1ccc(-c2noc(CNC(=O)c3cc(OC)c(OC)c(OC)c3)n2)cc1	5%
COc1cc(OC)c(NC(=O)NCc2cccn2Cc2ccccc2)cc1Cl	15%
O=C(Nc1ccc(Cl)cc1F)c1cc(S(=O)(=O)NCc2ccc3c(c2)OCO3)ccc1F	-10%
COc1cc(NC(=O)CN2CCCN(Cc3cccc(F)c3)S2(=O)=O)cc(OC)c1	-1%
COc1ccccc1N1CCN(C(=O)c2oc3ccccc3c2N)CC1	3%
COc1ccc(C(=O)Nc2ccc(-c3nc4ncccc4o3)cc2)cc1	-1%
COC(=O)c1c(C)oc2ccc(N(C(=O)c3ccncc3)S(=O)(=O)c3ccc(OC)cc3)cc12	24%
CCOc1ccc(NC(c2ccc(Cl)cc2)c2nnc(-c3cccc(F)c3)o2)cc1 (centres undefined)	-9%
CCOC(=O)c1c(NC(=O)c2ccc(S(=O)(=O)N(CC(C)C)CC(C)C)cc2)sc2c1CCN(CC)C2	0%
CCCc1cnc2c(c1SCC(=O)N(C)c1ccccc1)c(=O)n(C)c(=O)n2C	-1%
Cc1ccc(CNC(=O)c2cc3c(=O)oc4ccc(C)cc4c3s2)cc1	-1%
CCN(C(=O)CN(C)S(=O)(=O)c1ccc2c(c1)c(=O)n(C)c(=O)n2C)c1ccc(OC)cc1	-2%
Cc1nc2c(c(C)c1CCC(=O)NCc1ccc(F)cc1)c(=O)n(C)c(=O)n2C	3%
CCOC(=O)c1cc(-c2ccccc2)n(CCC(=O)Nc2cc(C)cc(C)c2)c1C	26%
Cc1ccc(OC(=O)CSc2nnc(-c3ccc4c(c3)OCO4)o2)c(C)c1	12%
Cc1ccc(NC(=O)CN2c3ccccc3S(=O)(=O)c3ccccc32)cc1F	-3%
Cc1ccc(C2CC(=O)Nc3c2c(C)nn3-c2nc(C)cc(C)n2)c(C)c1 (centres undefined)	2%
O=C(c1ccc(F)cc1)N1CCC(c2nc3ccccc3o2)CC1	3%
CCCCOc1ccc(C(=O)Nc2nc3c(s2)CC(C)CC3)cc1 (centres undefined)	4%
CCCn1c(CN2CCN(c3ccc(OC)cc3)CC2)nc2c1c(=O)[nH]c(=O)n2C	-5%
COc1ccc(NC(=O)c2cc3c(=O)n(C)c4ccccc4c3s2)cc1Cl	-2%
COc1ccc(S(=O)(=O)Nc2cccc(-c3ccc(N4CCCC4)nn3)c2)c(OC)c1	-4%
CCCCn1c(SCC(=O)Nc2cccc(OC)c2)nc2c(sc3ccccc32)c1=O	1%
CC(=O)c1ccc(NC(=O)CSc2nnc3ccc(-c4ccc(Br)cc4)nn23)cc1	7%
O=C(OCc1cc(=O)n2nc(C3CCCCC3)sc2n1)c1ccc(F)cc1	3%
COC(=O)c1c(NC(=O)c2cccc(OC)c2)sc2c1CCC(C(C)(C)C)C2 (centres undefined)	15%
COc1ccc(C)cc1NC(=O)N1CCC(CN2CCC(C)CC2)CC1	-2%
CCOC(=O)c1c(S(=O)(=O)N2CCN(c3cc(Cl)ccc3C)CC2)c(C)n(C)c1C	8%
COCCNC(=O)CCCn1c(SCC(=O)c2ccc(F)cc2)nc2c(sc3ccccc32)c1=O	-2%
COc1ccc(CNC(=O)C(CC(C)C)NS(=O)(=O)c2ccc3c(c2)oc(=O)n3C)cc1 (centres undefined)	-24%
COc1ccc(-c2nn(-c3cccc([N+](=O)[O-])c3)c3c2cnc2cc4c(cc23)OCO4)cc1	-4%
COc1ccc(C2=C(C)C(=O)N(Cc3ccc(C(=O)Nc4ccc(C)c(C)c4)cc3)S2(=O)=O)cc1	6%
Cc1c(Cl)cccc1NC(=O)CN1C(=O)CSc2ccc(S(=O)(=O)N3CCCC3)cc21	5%
Cc1ccc2occ(CC(=O)Nc3ccc(Cl)c(C(F)(F)F)c3)c2c1	?
COc1ccc(Cl)cc1NC(=O)c1noc2c1CCc1ccccc1-2	0%
Cc1ccc(-c2cc3c(n2-c2ccc(C)cc2)CC(C)(C)CC3=O)cc1	0%
COc1ccc(CC(=O)Nc2ccc3nc(N4CCCCC4)cc(C)c3c2)cc1	7%
Cc1ccc(NC(=O)C(Cc2ccccc2)N2Cc3ccccc3C2=O)cc1Cl (centres undefined)	?
COc1ccc(CCNC(=O)CCc2c(C)c3cc4c(C)c(C)oc4cc3oc2=O)cc1	-20%
COc1ccc(N2CCN(C(=O)c3cn(CC(C)C)c(=O)c4c3c3ccccc3n4C)CC2)cc1	16%
The list goes on:
SMILES	miR-21 reporter
COc1ccc2nc(N(Cc3cccnc3)C(=O)c3ccco3)sc2c1	-44%
Cc1cccc(NC(c2cccc(F)c2)c2ccc3ccc(C)nc3c2O)n1 (centres undefined)	-8%
Cc1ccccc1OCC(=O)Nc1ccc2nc(SCC(=O)N3CCOCC3)sc2c1	21%
COc1ccc(N2CC(NC(=O)C3CCCC3)CC2=O)cc1 (centres undefined)	-3%
COc1cc(C(=O)Nc2ccccc2OCc2cc(=O)n3cc(C)sc3n2)cc(OC)c1OC	-7%
Cc1ccc(-n2cc3c(c2-c2ccccc2Br)c(=O)n(C)c(=O)n3C)cc1N	-19%
Cc1cc2c(cc1S(=O)(=O)NCc1ccc(F)cc1)OCCN2C	4%
O=C(Cn1c(=O)n(-c2ccc(F)c(Cl)c2)c(=O)c2sc3ccccc3c21)NC1CCCC1	-3%
CCCCNc1nc(Oc2ccc(OCC)nn2)nc(N2CCOCC2)n1	-5%
CCCn1c(=O)c2sccc2n2c(CCCC(=O)Nc3ccc(Oc4ccc(Cl)cc4)cc3)nnc12	?
COc1ccc(C(=O)NCC(c2cccnc2)N2CCN(c3ccccc3OC)CC2)cc1 (centres undefined)	7%
Cn1nnnc1SCCCNCc1ccc(Cl)cc1	-9%

Reformatted with the structure last: entries from further up
miR-21 reporter	Structure
-20%	COc1ccc(CCNC(=O)CCc2c(C)c3cc4c(C)c(C)oc4cc3oc2=O)cc1
16%	COc1ccc(N2CCN(C(=O)c3cn(CC(C)C)c(=O)c4c3c3ccccc3n4C)CC2)cc1
-44%	COc1ccc2nc(N(Cc3cccnc3)C(=O)c3ccco3)sc2c1
-8%	Cc1cccc(NC(c2cccc(F)c2)c2ccc3ccc(C)nc3c2O)n1 (centres undefined)
21%	Cc1ccccc1OCC(=O)Nc1ccc2nc(SCC(=O)N3CCOCC3)sc2c1
-3%	COc1ccc(N2CC(NC(=O)C3CCCC3)CC2=O)cc1 (centres undefined)
-7%	COc1cc(C(=O)Nc2ccccc2OCc2cc(=O)n3cc(C)sc3n2)cc(OC)c1OC
-19%	Cc1ccc(-n2cc3c(c2-c2ccccc2Br)c(=O)n(C)c(=O)n3C)cc1N
4%	Cc1cc2c(cc1S(=O)(=O)NCc1ccc(F)cc1)OCCN2C
-3%	O=C(Cn1c(=O)n(-c2ccc(F)c(Cl)c2)c(=O)c2sc3ccccc3c21)NC1CCCC1
-5%	CCCCNc1nc(Oc2ccc(OCC)nn2)nc(N2CCOCC2)n1
?	CCCn1c(=O)c2sccc2n2c(CCCC(=O)Nc3ccc(Oc4ccc(Cl)cc4)cc3)nnc12
7%	COc1ccc(C(=O)NCC(c2cccnc2)N2CCN(c3ccccc3OC)CC2)cc1 (centres undefined)
-9%	Cn1nnnc1SCCCNCc1ccc(Cl)cc1

Next part:
SMILES	miR-21 reporter
Cc1ccc(OCC(=O)N(Cc2ccco2)Cc2ccc(C)o2)cc1	6%
CCc1ccc(OCC2c3cc(OC)c(OC)cc3CCN2C(=O)COc2ccccc2)cc1 (centres undefined)	12%
Cc1ccc(-n2nc3c(=O)n(CCCC(=O)NCCc4ccccc4Cl)nc(C)c3c2C)cc1	7%
CC(NC(=O)c1ccc2c(c1)CCN2S(C)(=O)=O)c1ccccc1 (centres undefined)	0%
COc1cccc(CNC(=O)c2ccc(CNS(=O)(=O)c3ccc(C)cc3)cc2)c1	4%
O=C(Nc1cc(-c2ccc(Cl)cc2)no1)c1ccc(F)cc1	-22%
Cc1nc2ccn(Cc3cccnc3)c(=O)c2cc1C(=O)N1CCN(c2ccccc2)CC1	2%
CCOC(=O)c1ccc(CN(Cc2ccc(F)cc2)S(=O)(=O)c2ccc(F)c(C(=O)Nc3ccc(Cl)cc3F)c2)cc1	5%
CCOC(=O)CN(Cc1ccccc1)C(C(=O)NC1CCCCC1)c1ccc(C)cc1 (centres undefined)	?
O=C(CSc1nc2ccccc2nc1Cc1ccccc1)NCc1ccccc1Cl	-2%
COc1cc(OC)c(NC(=O)Nc2ccccc2OCc2cc(=O)n3cc(C)ccc3n2)cc1Cl	-17%
Cc1ccc(C(C)C)c(OCCSc2nc(-c3cccs3)nc3cc(=O)[nH]n23)c1	-25%
NC(=O)c1ccccc1NC(=O)c1ccc(-c2ccc(Br)cc2)o1	-78%
Cc1ccc(S(=O)(=O)C2(C(=O)Nc3ccc(Cl)c(C(F)(F)F)c3)CC2)cc1	9%
O=C(OCc1cc(=O)n2nc(-c3cccs3)sc2n1)c1cccc(F)c1	-2%
COC(=O)c1cc(S(=O)(=O)N2CCN(c3ccc(OC)cc3)CC2)c[nH]1	-1%
COc1ccc(C(=O)Nc2ccc(N3CCN(c4ccccc4)CC3)c(C(=O)O)c2)cc1	-20%
COc1ccc(CSc2nc3ccncc3n2CC(=O)Nc2cc(C)cc(C)c2)cc1	-24%
CCOC(=O)c1cc(-c2ccccc2)n(CCC(=O)Nc2cc(OCC)ccc2OCC)c1C	8%
O=C(CCSCc1cccc(F)c1)NCc1ccccc1	3%
Cc1ccc(CSc2nc3ccc(NC(=O)C(C)C)cc3s2)cc1	-6%
CCn1cc(S(=O)(=O)c2ccccc2)c(=O)c2cc(C)ccc21	3%
COc1ccccc1C(=O)Nc1cc(-c2cccc(Br)c2)nn1-c1ccccc1	-6%
COc1ccc(CCNC(=O)c2ccc3nc(Cc4ccccc4)oc3c2)cc1OC	?
CCn1cc(C(=O)N2CCN(c3cccc(Cl)c3)CC2)c(=O)c2cc(S(=O)(=O)N3CCCCC3)ccc21	20%
Cc1cccc(NC(=O)CSc2nc3c([nH]c4ccccc43)c(=O)n2-c2cc(C)cc(C)c2)c1	-13%
CC(C)c1ccc(NC(=O)CSC2=Nc3ccccc3C3=NC(CCC(=O)NCc4ccc(F)cc4)C(=O)N23)cc1 (centres undefined)	18%
Cc1cccc(OCC(=O)Nc2c(C(=O)Nc3ccc(F)cc3)oc3ccccc23)c1	-18%
Cc1ccc(NC(=O)c2ccc(Br)cc2)c(C(=O)c2ccccc2)c1	-6%
Cc1ccc(NC(=O)Cn2c(=O)n(Cc3nc(-c4ccccc4)no3)c(=O)c3cc4c(cc32)OCO4)cc1C	2%
CC(C)c1ccc(S(=O)(=O)c2cn(CC(=O)Nc3ccc(F)cc3)c3ccccc3c2=O)cc1	1%
O=C(NCCOCCn1c(=O)oc2ccccc21)Nc1ccc(Cl)cc1	29%
Cc1ccc(Cl)cc1N1CCN(S(=O)(=O)c2ccc3oc(=O)c4ncn(C)c4c3c2)CC1	0%
CN(C)CCNC(=O)c1ccc(-n2c(-c3ccccc3)cc3c2CCCCC3)cc1	29%
COc1ccc(CCNC(=O)CSc2nnnn2-c2cccc(C(C)=O)c2)cc1OC	0%
CCOC(=O)N1CCC(NC(=O)c2ccc3c(c2)N(Cc2cc(C)ccc2C)C(=O)c2ccccc2S3(=O)=O)CC1	6%
COc1cc(NC(=O)NCCn2nnc3cc(S(=O)(=O)N(C)C)ccc32)cc(OC)c1OC	0%
Cc1cccc(N2CCN(C(=O)Cn3c(=O)c4cccn4c4ccc(F)cc43)CC2C)c1 (centres undefined)	-7%
O=c1oc2c(CN3CCN(CCO)CC3)c(O)ccc2cc1-c1ccccc1	-7%
Cc1ccc2nc(N(Cc3cccnc3)C(=O)c3ccco3)sc2c1	-59%
COc1ccc2c(c1)CC(C(=O)NCc1ccc(F)cc1)CO2 (centres undefined)	1%
COC(=O)c1ccccc1NC(=O)c1nc(-c2ccc(Cl)cc2)n2c1CCCCC2	-3%

An excerpt, so the mix of outcomes need not match the whole.
